VDR inh = blocks the human vitamin D receptor; P11473; VDR-SRC2-3 peptide fluorescence polarization, 2 h; Potency, µM, inactives show max response, negative = inhibition, most hits filed as inhibitors; hit rate 0.93% among 400,000; AID 504847; active = well fitted inhibition curve with a large enough effect; inconclusive = small, poorly fitted or top-dose-only effect, or another doubt; inactive = no such curve, though single readings can be large or run the other way; also: series mostly up to about 120 µM
Target sequence (P11473 whole entry, looked up): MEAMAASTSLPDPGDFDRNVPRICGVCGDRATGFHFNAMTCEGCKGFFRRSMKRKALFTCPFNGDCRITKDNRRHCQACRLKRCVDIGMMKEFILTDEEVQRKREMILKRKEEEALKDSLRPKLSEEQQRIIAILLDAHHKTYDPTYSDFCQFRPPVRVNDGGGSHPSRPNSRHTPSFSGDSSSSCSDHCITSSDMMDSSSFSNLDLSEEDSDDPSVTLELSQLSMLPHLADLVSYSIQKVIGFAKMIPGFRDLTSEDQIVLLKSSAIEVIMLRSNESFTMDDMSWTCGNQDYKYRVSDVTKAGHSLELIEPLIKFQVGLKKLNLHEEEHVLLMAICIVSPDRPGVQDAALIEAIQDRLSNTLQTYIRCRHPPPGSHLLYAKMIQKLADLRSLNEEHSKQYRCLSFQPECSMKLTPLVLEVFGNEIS
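Signal is fluorescence polarization, reporting how far test compounds block the interaction of VDR with the SRC2-3 coregulator peptide after a 2 h room-temperature incubation.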
* = called active by the depositor; u = inconclusive; & = joins results of further samples; [ ] = dose if it differs, or a comment. % is scaled to controls: 0 for no effect and ±100 for the full control effect; potency is read from the fitted curve at half-maximal effect.

VDR inh	Molecule
15%	CCOC(=O)Cn1nc(-c2ccc(Cl)cc2)ccc1=O
10%	COc1ccc(OCCCC(=O)OCC(=O)N2CCN(S(=O)(=O)c3ccc(C)cc3C)CC2)cc1
-3%	Cc1[nH]nc(C(F)(F)F)c1CCC(=O)NC1CCCCCC1
-5%	CC(NC(=O)CN(c1ccc(Cl)cc1Cl)S(=O)(=O)c1ccccc1)c1ccccc1 (stereo unspecified)
4%	O=C(COc1ncnc2ccccc12)N1CCN(c2ccccc2)CC1
8%	Cn1c(Oc2ccc(Cl)cc2)nc2c1c(=O)n(Cc1ccc(F)cc1)c(=O)n2C
-2%	CC1(C)OC2CC3C4CCC5=CC(=O)CCC5(C)C4(F)C(O)CC3(C)[C@]2(C(=O)CCl)O1 (stereo partly specified)
-3%	CN1C(=O)S/C(=C/c2cccn2-c2cccc(C(=O)O)c2)C1=O
-8%	COC(=O)c1ccc2c(=O)[nH]c(COC(=O)c3[nH]c(C)c(C(C)=O)c3C)nc2c1
-11%	Cc1cc(C)cc(C(=O)NCC(=O)OCC(=O)N2CCCCC2)c1

Following part
VDR inh	Molecule
15%	Cn1c(SCC(=O)Nc2nncs2)nnc1C1CC1
15%	O=C(COC(=O)COc1ccc(Cl)cc1Cl)NC1CCCC1
3%	O=C(NCCCN1CCCC1=O)c1cc(NS(=O)(=O)c2ccc(F)cc2)cc(NS(=O)(=O)c2ccc(F)cc2)c1
-6%&-11%	CCc1ccc(NC(=O)c2cc(-c3cccs3)on2)cc1
8%	CCCn1nc2cc(C(=O)NCc3ccccc3OC)ccc2c1OCC
-4%	OCCC1CN(Cc2cccn2-c2cccnc2)CCN1Cc1ccccc1 (stereo unspecified)
-3%	CCSc1nc2c(c(=O)[nH]1)C(c1ccncc1)C(C(=O)OC(C)C)=C(C)N2 (stereo unspecified)
-3%	COC(=O)c1ccc(CN2C(=O)C(C)N(C(=O)c3c(F)cccc3F)c3ccccc32)cc1 (stereo unspecified)
11%	Cc1nnc(-c2cnn(C)c2N)n1Cc1ccccc1
-12%	Cc1cc(C)cc(NCc2cc(=O)oc3cc(C)c(O)cc23)c1

Next section
VDR inh	Molecule
3%	CC1=NN(C(=O)c2cc(C)nn2C)C(O)(C(F)(F)F)C1 (stereo unspecified)
-8%	COc1ccc(Br)cc1C1N2CC3(C)CN1CC(C)(C2)C3=O (stereo unspecified)
2%	Cn1c2ccccc2c2cnn(CC(=O)Nc3ccccc3Br)c(=O)c21
-18%	O=[N+]([O-])c1ccc(N/N=C/c2ccccc2O)cc1
2%	O=[N+]([O-])c1ccc(Nc2nc(N/N=C/c3cccc(F)c3)nc(N3CCCC3)n2)cc1
-16%	C[C@@H]1CN([C@@H](C)CO)C(=O)Cc2cc(NS(=O)(=O)c3ccccc3)ccc2O[C@H]1CN(C)S(C)(=O)=O
6%	N#CC1=C(N)OC2=C(C(=O)CCC2)C1c1ccncc1 (stereo unspecified)
-14%	COc1cc(OC)c(-c2nn3c(-c4ccco4)nnc3s2)cc1OC
10%	CCc1nnc(NC(=O)C2Cc3ccccc3C(=O)O2)s1 (stereo unspecified)
39%[activator]	NNC(=O)c1cccn(Cc2cccc(C(F)(F)F)c2)c1=O

In the list so far, these contain sulfur:
VDR inh	Molecule
10%	COc1ccc(OCCCC(=O)OCC(=O)N2CCN(S(=O)(=O)c3ccc(C)cc3C)CC2)cc1
-5%	CC(NC(=O)CN(c1ccc(Cl)cc1Cl)S(=O)(=O)c1ccccc1)c1ccccc1 (stereo unspecified)
-3%	CN1C(=O)S/C(=C/c2cccn2-c2cccc(C(=O)O)c2)C1=O
15%	Cn1c(SCC(=O)Nc2nncs2)nnc1C1CC1
3%	O=C(NCCCN1CCCC1=O)c1cc(NS(=O)(=O)c2ccc(F)cc2)cc(NS(=O)(=O)c2ccc(F)cc2)c1
-6%&-11%	CCc1ccc(NC(=O)c2cc(-c3cccs3)on2)cc1
-3%	CCSc1nc2c(c(=O)[nH]1)C(c1ccncc1)C(C(=O)OC(C)C)=C(C)N2 (stereo unspecified)
-16%	C[C@@H]1CN([C@@H](C)CO)C(=O)Cc2cc(NS(=O)(=O)c3ccccc3)ccc2O[C@H]1CN(C)S(C)(=O)=O
-14%	COc1cc(OC)c(-c2nn3c(-c4ccco4)nnc3s2)cc1OC
10%	CCc1nnc(NC(=O)C2Cc3ccccc3C(=O)O2)s1 (stereo unspecified)

Later entries:
VDR inh	Molecule
9%	COc1ccccc1N(CC(=O)Nc1cccnc1)S(C)(=O)=O
-5%	CCOC(=O)/C(C(C)=O)=C1\OC(=O)c2ccccc21
-18%	Cn1c(=O)n(C)c2cc(N3CCCC3)c(NC(=O)Nc3ccccc3)cc21
-3%	COC(=O)c1ccccc1NC(=O)CN1CCC(C)CC1
-6%	CCc1nn(C(CC)C(=O)NCc2cccc(OC)c2)c(=O)c2cc3occc3n12 (stereo unspecified)
2%	Cn1c(=O)c2c(n3cnnc13)-c1ccccc1CC21CCCC1
-7%	CCOc1ccc(OCC)c(NC(=O)c2[nH]c(C)c(C(C)=O)c2C)c1
11%	C=C(C)C1CC=C(C)/C(=N\NC(=S)Nc2ccc(C)cc2)C1 (stereo unspecified)
-4%	C[C@@H]1C[C@H](O)c2cc(Cl)ccc2N1
-8%	O=C(CSc1ccccc1)NCCc1ccc(F)cc1

Additional results.
VDR inh	Molecule
-10%	COc1ccccc1CN1CCNC(=O)C1CC(=O)NCCCN1CCCC1=O (stereo unspecified)
21%	COCCCNC(=O)c1c(N)n(-c2cccc(S(N)(=O)=O)c2)c2nc3ccccc3nc12
-5%	O=C(Cn1cc2c(n1)CCCC2)Nc1cc(-c2cccc(Cl)c2)no1
-24%	Cc1cc(=O)n(CC(C)C)c(O)c1C#N
-5%	COc1ccc(CCC(=O)N2CCN(C(=O)c3ccccc3)CC2)cc1
-16%	CCN1CCN(c2ccc(S(=O)(=O)N3CCCCC3)cc2NC(=O)c2ccc(OC(F)F)cc2)CC1
-9%	Cc1csc(NC(=O)c2ccc(Cl)cc2[N+](=O)[O-])n1
9%	O=C1CCC/C(=N/NC(=O)c2sc3ccccc3c2Cl)C1
-6%	O=C(NN1C(=O)C2C3C=CC(C3)C2C1=O)c1cccc(Cl)c1 (stereo unspecified)
-9%	CCOc1ccc(S(=O)(=O)/N=C(/Nc2ccc(S(N)(=O)=O)cc2)c2ccccc2)cc1

Sorted by the number under VDR inh (lowest first): 3 of the compounds above
SMILES | VDR inh
COc1ccccc1CN1CCNC(=O)C1CC(=O)NCCCN1CCCC1=O (stereo unspecified) | -10%
Cc1csc(NC(=O)c2ccc(Cl)cc2[N+](=O)[O-])n1 | -9%
O=C1CCC/C(=N/NC(=O)c2sc3ccccc3c2Cl)C1 | 9%

The results go on:
VDR inh	Molecule
-27%	CCOc1ccc(C(=O)OC2CCCN(C)C2)cc1 (stereo unspecified)
-16%	C/C(=N/O)c1cc(C(C)(C)C)c(O)c(C(C)(C)C)c1
-13%	COc1ccc2[nH]c3c(c2c1)CCN1C(=O)C(CC(=O)NCCCn2ccnc2)C[C@H](C(=O)N2CCCCC2)[C@@]31CCc1ccccc1 (stereo partly specified)
8%	CCC1CCc2c(sc3ncnc(N4CCOCC4)c23)C1 (stereo unspecified)
-14%	COC(=O)c1ccc(NC(=O)CSc2nnc(C)n2CC2CCCO2)cc1 (stereo unspecified)
-1%	CN(C)S(=O)(=O)CC12CCC(CC1=O)C2(C)C (stereo unspecified)
4%	Cc1cc(C(=O)Nc2cccnc2Cl)on1
7%	CCOC(=O)c1cccc(NC(=O)CSc2nc3ccccc3c(=O)n2CCOC)c1
5%	O=C(Nc1ccc(O)cc1)c1cc(S(=O)(=O)N2CCCC2)ccc1Cl
79µM*	S=C(NNc1ccnc2cc(Cl)ccc12)Nc1ccc(Cl)cc1Cl

Later entries.
VDR inh	Molecule
-5%	Cc1nn(CC(=O)O)c(C)c1[N+](=O)[O-]
3%	Cc1ccc(N2CCN(C(=O)c3cccn4c(=O)c5ccc(Cl)cc5nc34)CC2C)cc1 (stereo unspecified)
-10%	C=CCSc1nnc2c(n1)OC=Nc1ccc(Br)cc1-2
-8%	O=C(O)c1cccc(NC(=O)c2cccc(S(=O)(=O)Nc3cccc(F)c3)c2)c1
-23%	COc1ccc(OC)c(CNC(=O)c2ccc(C)c(NC(=O)C3=C(C)OCCS3)c2)c1
-27%	CC(C)(C)n1nnnc1CN1CCSCC1
20%	CCSc1nnc(NC(=O)CSc2nnc(CNC(=O)c3ccc(OC)cc3)o2)s1
1%	Cc1cccc(OCCCC(=O)Nc2sc3c(c2C(N)=O)CCC(C)C3)c1 (stereo unspecified)
-18%	COc1ccc(C2C(C(=O)N3CCCCC3)CC(=O)N2c2ccc(OC)cc2)cc1 (stereo unspecified)
7%	Cc1ccc(OCc2ccc(C(=O)Nc3nc4ccccc4n3Cc3ccccc3)o2)c([N+](=O)[O-])c1

Continued.
VDR inh	Molecule
u	O=C(CC(c1ccc(F)cc1)c1ccco1)N1CCOCC1 (stereo unspecified)
-4%	CSc1ccc(CCNC(=O)c2ccc3c(Cl)c4c(nc3c2)CCCC4)cc1
1%	Cc1nc(C(=O)N2CCC(n3nccc3NC(=O)Nc3ccccc3Cl)CC2)cs1
12%	COc1ccc(NC(=O)CSc2nc(-c3cc(OC)c(OC)c(OC)c3)[nH]c2-c2ccc(F)cc2)cc1
-4%	CCCCC(C(=O)NC(=O)NCc1ccccc1)N1C(=O)c2ccccc2C1=O (stereo unspecified)
-4%	COc1cc(NS(=O)(=O)c2cc3[nH]c(=O)c(=O)[nH]c3cc2C)cc(OC)c1OC
16%	CC(=O)Nc1nonc1-c1nnc(SCC(=O)Nc2cc(Cl)ccc2C)n1C
5%	CCCC12CN3CC(CCC)(CN(C1)C3c1ccc(OC(C)C)cc1)C2=O (stereo unspecified)
1%	Cc1ccc(C(OC(=O)c2ccco2)C(=O)NCc2cccs2)cc1 (stereo unspecified)
2%	CCOc1ccc(N(CC(=O)NCc2ccccc2Cl)S(=O)(=O)c2c(C)noc2C)cc1

Next part.
VDR inh	Molecule
-4%	Cc1ccc(-c2cc(C(=O)OCC(=O)N(C)c3c(N)n(Cc4ccccc4)c(=O)[nH]c3=O)c3ccccc3n2)o1
-10%	Cc1ccc(S(=O)(=O)N2CCCC(NC(=O)N3CCN(c4ccccc4)CC3)C2)cc1 (stereo unspecified)
-6%	COc1ccc(-n2cnnc2SCC(=O)NCc2cccs2)cc1
-13%	Cc1oc(-c2ccccc2F)nc1CN1CCC(C(=O)NC2CCCCCCC2)CC1
-12%	CC(=O)c1ccc(N2CCN(C(=O)[C@H](C)NC(=O)c3ccccc3Cl)CC2)cc1
18%	O=C(COC(=O)c1cccnc1Cl)c1ccc(Cl)cc1Cl
6%	Cc1ccccc1C(=O)N1CCC(C(=O)Nc2ccc(C(C)C)cc2)CC1
-3%	CCOc1ccc(C2C=C(c3ccc(F)cc3)Nc3ncnn32)cc1 (stereo unspecified)
5%	O=C(CC1N=C2c3ccccc3N=C(SCc3ccc(Cl)cc3)N2C1=O)NC1CCCCC1 (stereo unspecified)
-3%	CN(C(=O)CSc1nnc(Cc2ccccc2F)n1N)C1CCS(=O)(=O)C1 (stereo unspecified)

Other entries
VDR inh	Molecule
-5%	Cc1ccc(S(=O)(=O)N2CCN(C(=O)NCc3ccc(F)cc3)CC2)c(C)c1
-11%	CC(CNC(=O)CN1C(=O)NC2(CCOc3ccccc32)C1=O)c1ccccc1 (stereo unspecified)
-6%	S=c1nc[nH]c2c1cnn2-c1ccccc1
8%	CCOC(=O)CN(C(=O)CNC(=O)c1ccco1)C(C(=O)NC1CCCCC1)c1cccnc1 (stereo unspecified)
-19%	CC(C)c1cc(C(=O)N2CCCC(Nc3ccc(F)c(F)c3)C2)nc(N)n1 (stereo unspecified)
0%	CCOC(=O)c1c(-c2ccc(OC)cc2)csc1NC(=O)CCN1CCOCC1
-26%	COc1ccc(C(=O)COC(=O)CN2C(=O)C3CC=CCC3C2=O)c(OC)c1 (stereo unspecified)
1%	Cc1ccc(N=C2NC(=O)/C(=C/c3cccs3)S2)cc1C
6%	CCOc1ccc(S(=O)(=O)N2CCN(c3ccccc3OC)CC2)c2cccnc12
29%	CC(C)c1ccc(NC(=O)C2CC(=O)N=C(N)S2)cc1 (stereo unspecified)

The listing continues:
VDR inh	Molecule
11%	CC1(C)CC(=O)C2=C(C1)Nc1cc(C(=O)c3ccccc3)ccc1NC2c1ccccn1 (stereo unspecified)
-16%	Cc1nn(C)c(C(=O)Nc2ccc(Cl)c([N+](=O)[O-])c2)c1Cl
-10%	Cc1ccc(-c2csc3nc(CSc4nnc(-c5ccc(Cl)cc5)n4C)[nH]c(=O)c23)cc1
3%	COCc1cc(C)nc2sc(C(=O)Nc3cccc(OC)c3)c(N)c12
-9%	N#Cc1nc(COc2cccc(Cl)c2)oc1NCc1ccco1
u	CCN1CCN(S(=O)(=O)c2ccc3[nH]c(=O)oc3c2)CC1
9%	CC(C)c1noc(-c2ccccc2OCC(=O)Nc2cccc([N+](=O)[O-])c2)n1
-8%	Cc1ccc(S(=O)(=O)Cc2cc(F)c([N+](=O)[O-])cc2[N+](=O)[O-])cc1
-15%	CCCCn1nc(C(=O)Nc2c(C)n(C)n(-c3ccccc3)c2=O)c2ccccc2c1=O
-1%	CCO/C=C/C(=O)N(C)CCC#N

(further entries)
VDR inh	Molecule
7%	CCN(CC)c1ccc(CNc2nc3ccccc3n2CCN2CCCCC2)cc1
-14%	O=C(O)/C=C/c1cn(-c2ccccc2)nc1-c1ccc(-c2ccc([N+](=O)[O-])cc2)o1
-3%	CCC(c1nnnn1C1CCCC1)N1CCN(Cc2ccccc2)CC1 (stereo unspecified)
-19%	CN(CC(=O)OCC(=O)c1c(N)n(C)c(=O)n(C)c1=O)S(=O)(=O)c1ccc(Cl)cc1
-16%	CN(c1ccccc1C(=O)Nc1cccc(C(F)(F)F)c1)S(C)(=O)=O
-8%	COc1ccc(/C(O)=C2/C(=O)C(=O)N(CCCN3CCOCC3)C2c2ccc(OC)cc2)cc1 (stereo unspecified)
0%	CC1CCN(c2ccc(-c3cccc(NC(=O)c4ccco4)c3)nn2)CC1
-6%	COc1ccc2c(C)nc(Nc3nc(C)c(C)c(=O)[nH]3)nc2c1

An excerpt; count on the stated rates, not on these rows.
